E coli growth = E. coli growth inhibition, primary screen, OD600; Escherichia coli growth, 23 h; active compounds read low; OD600 absorbance (concentration not given with the values); actives 0.21% (n = 330,000); AID 1053175, 2014;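 active means OD600 absorbance below the run mean of sample wells minus 3.6 SD, in any replicate, cut at about 0.56 in these data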;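 further: stock transfer was 300 nL into about 60 µL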
ALR H2O2 inh = inhibitors of human ALR sulfhydryl oxidase, primary screen, biochemical, H2O2 detection, HRP-luminol luminescence, single point | AID 485317, 2010 | actives 3.8% (n = 290,000) | inhibition, % (no concentration beside the values) | FAD-linked sulfhydryl oxidase ALR (Homo sapiens), P55789 | purified ALR, DTT oxidation;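 active means mean and each replicate at 75% or more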;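 further: stock transfer was 7.5 nL into about 7.5 µL; 0% = neutral wells and 100% = wells with inactivated enzyme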
Target sequence (P55789 whole entry, looked up): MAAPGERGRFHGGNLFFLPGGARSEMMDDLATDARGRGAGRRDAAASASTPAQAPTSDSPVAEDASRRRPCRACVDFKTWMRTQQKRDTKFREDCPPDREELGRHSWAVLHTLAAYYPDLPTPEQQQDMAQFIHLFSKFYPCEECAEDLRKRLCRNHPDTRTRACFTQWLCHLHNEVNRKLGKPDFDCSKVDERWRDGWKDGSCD
Vif TR-FRET = inhibitors of Vif binding to APOBEC3G peptide, primary screen, biochemical, TR-FRET, GST-Vif 1-94, biotin-A3G peptide, dose response retest (AID 1117319); Virion infectivity factor (Human immunodeficiency virus type 1 group M subtype B (isolate …; TR-FRET GST-Vif / biotin-A3G peptide binding; higher % means a stronger effect; test concentration not given here; strong numbers were not always called active; inhibition, %, or IC50 in µM where a hit was titrated; actives 0.57% (n = 260,000);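 active means above the screen mean plus three standard deviations and confirmed in dose response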;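 further: Vif residues 1-94 fused to GST binding biotinylated APOBEC3G peptide 110-148; 0% = full assay without inhibitor and 100% = GST in place of GST-Vif; retest series ran down from 100 µM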
AF4-AF9 inh = inhibitors of AF4 peptide binding to AF9, primary screen, biochemical, AlphaScreen, biotin-AF4 peptide, FLAG-AF9, single point; Protein AF-9 (Homo sapiens), P42568; inhibition, % at 10 µM; actives 0.47% (n = 350,000); AID 651704, 2012;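 active means every replicate reaching a set inhibition limit, whatever the replicate mean, cut at about 25% in these data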;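 further: 0% = plate neutral control median and 100% = total signal loss; the record names both 10 and 1 µM as test concentration; the first replicate is given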
Target sequence (P42568 whole entry, looked up): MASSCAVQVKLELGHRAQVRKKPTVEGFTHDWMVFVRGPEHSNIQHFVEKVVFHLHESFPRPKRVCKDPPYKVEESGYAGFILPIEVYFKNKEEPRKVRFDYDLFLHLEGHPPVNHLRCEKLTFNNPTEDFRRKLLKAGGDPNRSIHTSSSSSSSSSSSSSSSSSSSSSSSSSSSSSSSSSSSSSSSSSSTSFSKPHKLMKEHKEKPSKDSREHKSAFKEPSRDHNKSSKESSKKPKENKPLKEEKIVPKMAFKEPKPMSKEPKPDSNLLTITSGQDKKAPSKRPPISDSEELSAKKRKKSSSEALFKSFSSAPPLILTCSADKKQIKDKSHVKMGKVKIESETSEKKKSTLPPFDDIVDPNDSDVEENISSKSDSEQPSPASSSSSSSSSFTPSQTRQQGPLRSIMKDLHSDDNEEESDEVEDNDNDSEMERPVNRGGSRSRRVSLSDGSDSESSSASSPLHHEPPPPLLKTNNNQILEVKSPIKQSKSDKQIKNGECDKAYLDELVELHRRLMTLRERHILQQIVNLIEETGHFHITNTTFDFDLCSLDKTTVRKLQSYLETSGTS
FGF22 binding = binders of human FGF22 protein, primary screen, FGF22 synaptogenesis inhibitor project, biophysical, thermal shift, single point; recombinant FGF22 thermal shift, SYPRO orange fluorescence; percent of sucrose octasulfate shift, DMSO zero; AID 651658, 2012; calls only at 9.99 µM; Fibroblast growth factor 22 (Homo sapiens), Q9HCT0; actives 1.5% (n = 340,000);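 active means melting point raised past a set limit in the mean and every replicate; three in four hits are not shown here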
Target sequence (Q9HCT0 whole entry, looked up): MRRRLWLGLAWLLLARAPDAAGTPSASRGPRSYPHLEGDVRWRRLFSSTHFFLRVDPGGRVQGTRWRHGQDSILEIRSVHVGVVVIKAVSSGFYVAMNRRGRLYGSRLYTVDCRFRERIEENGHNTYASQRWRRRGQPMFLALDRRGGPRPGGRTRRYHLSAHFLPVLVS
HNF4A DNA FP = change in binding of human HNF4A to DNA, primary screen, biochemical, fluorescence polarization, FITC-DNA. Hepatocyte nuclear factor 4-alpha (Homo sapiens), P41235. 1 h. activity change, % at 10 µM. actives 0.3% (n = 360,000); in the data active means activity change above about 30%, passing the limit was not always enough;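 further: controls were the assay level and a saturating level of protein; the project sought stronger binding though the title names inhibitors; some compounds called inactive have numbers as strong as hits; positive values seem to mean higher polarization but the record does not say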
rRNA inh HTS = reduced GFP signal of wild-type E. coli, primary screen, bacterial rRNA inhibitor project, GFP/RFP fluorescence, OD600, single point; E. coli WT GFP vs humanized-ribosome RFP mutants, 24 h; active compounds read low; DMSO median 0, no signal -100; GFP signal change (wild-type ribosome), % (no concentration beside the values); actives 1.6% (n = 350,000); AID 720706, 2013;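 active means significant combined selectivity score with lowered wild-type GFP, culture density cut under 30%, mutant RFP and density less affected; inactive means any of these conditions unmet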; further: one replicate is shown; some compounds called inactive have numbers as strong as hits
rRNA inh HTS OD600 = also measured in rRNA inh HTS; calls as there; OD600 change, %; measured here: OD600 growth;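 optical density of the mix in the first replicate; 0 = DMSO median and -100 = no signal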
rRNA inh HTS RFP = second read-out of rRNA inh HTS, no call of its own (marks repeat the call); RFP signal change, %; measured here: RFP humanized mutant strains;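 first replicate; 0 = DMSO median and -100 = no signal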
* hit, by the source's call; i = inactive; . = not tested or not shown; & = joins results of further samples.

SMILES | E coli growth | ALR H2O2 inh | Vif TR-FRET | AF4-AF9 inh | FGF22 binding | HNF4A DNA FP | rRNA inh HTS | rRNA inh HTS OD600 | rRNA inh HTS RFP
CCOC(=O)CN1C2=NCCN2c2ccccc21 | 0.78 | . | 0% | . | . | 0.0 | . | . | .
CNC[C@H]1OCCCC[C@H](C)Oc2ccc(NC(=O)NC3CCCCC3)cc2C(=O)N([C@@H](C)CO)C[C@@H]1C | . | . | . | -2.7 | i | . | 6 | 6 | -2.0
COC(=O)CSc1ncnc2scc(-c3ccccc3)c12 | 0.67 | -12 | 14% | -5.9 | i | -4.2 | -50 | -56 | -14
COc1cccc(C(c2c(C)[nH]n(-c3ccccc3)c2=O)c2c(C)[nH]n(-c3ccccc3)c2=O)c1OC | 0.71 | -54 | . | . | . | 0.7 | . | . | .
COc1ccc(C(=O)NC(C)c2ccc(-n3ccnc3)cc2)c(OC)c1 (centres undefined) | 0.72 | 1 | 2% | -3.8 | i | 2.0 | 10 | 2 | 1.3
Cc1cc(C)n(-c2nc(-c3cccc(Cl)c3)cs2)n1 | 0.72 | 23 | 2% | . | . | 3.8 | . | . | .
Cc1ccc(/C=C(\NC(=O)c2ccccc2)C(=O)NCCN2CCOCC2)o1 | 0.72 | 3 | -2% | -4.3 | i | 2.4 | 23 | 9 | 9.5
O=C(Nc1ccc(NC(=O)C2CCCCC2)nc1)c1ccco1 | 0.68 | -7 | 4% | . | . | -2.0 | . | . | .
CCCCn1c(N)c(N(CC(C)C)C(=O)C2CC(=O)N(c3ccc(CC)cc3)C2)c(=O)[nH]c1=O (centres undefined) | 0.65 | -3 | -1% | -26 | i | -2.9 | 10 | 12 | -1.7
CCCC#Cc1ccc2c(c1)O[C@H](CN(C)C(C)=O)[C@H](C)CN([C@@H](C)CO)S2(=O)=O | . | . | . | -0.7 | i | . | 5 | 5 | -2.0
COc1ccccc1NC(=O)Cc1nnc(SCC(=O)c2ccccc2)n1C | 0.68 | -11 | -13% | -0.2 | i | -2.4 | 3 | 6 | -1.8
CC=Cc1ccc2n(c1=O)C[C@H]1[C@H](CO)[C@@H](C(=O)NCC3CC3)N(Cc3cccnc3)[C@@H]21 (mixture of isomers) | . | . | . | -1.0 | i | . | 4 | 10 | -0.5
O=C(OCc1cc2ccccc2[nH]c1=O)c1ccco1 | 0.68 | -5 | -3% | 0.5 | i | -0.3 | 6 | -4 | 0.5
CSc1nc2nccc(-c3ccc(Cl)cc3)n2n1 | 0.72 | 4 | -2% | . | . | -6.5 | . | . | .
COc1ccc(S(=O)(=O)N2CCCC(C(=O)NC3CC3)C2)cc1OC (centres undefined) | 0.65 | 1 | 1% | -2.4 | i | 3.2 | 15 | 13 | 0.0
Cc1nn2c(=O)cc(COC(=O)c3ccc(S(=O)(=O)N4CCCCC4)cc3)nc2s1 | . | -20 | -9% | . | . | 1.0 | . | . | .
Cc1ccc(C)c2c1cc(C)c1nnc(SCc3ccccn3)n12 | 0.72 | 2 | 0% | . | . | -3.4 | . | . | .
COc1ccc(CN(C)C[C@H]2Oc3ccc(NC(=O)C4CC4)cc3CC(=O)N([C@H](C)CO)C[C@H]2C)cc1 | . | . | . | -0.7 | i | . | 1 | 8 | 1.1
O=C(COC(=O)COc1ccccc1Cl)Nc1ccccc1OC(F)F | . | 14 | -3% | . | . | 2.0 | . | . | .
CN1C(=O)c2cc(NC(=O)c3cscn3)ccc2OC[C@H]2O[C@H](CC(=O)N3CCCCC3)CC[C@@H]21 | . | . | . | -1.8 | i | . | -1 | -3 | -0.8
CCOC(=O)CC1=CC(C)(CC(=O)OCC)C(C#N)(C#N)C(N)=C1C#N (centres undefined) | 0.72 | -21 | -1% | . | . | 0.5 | . | . | .
OC(c1ccccc1)c1ncc(-c2cccc(OCc3ccccc3)c2)[nH]1 (centres undefined) | . | . | . | 6.5 | i | 5.9 | -19 | -41 | -6.6
O=C(O)c1ccccc1NCc1ccsc1 | 0.68 | 60 | 2% | -6.4 | i | -1.0 | 15 | 8 | -1.8
Cc1ccc(NC(=O)c2ccc([N+](=O)[O-])s2)cc1S(=O)(=O)N1CCOCC1 | 0.65 | -26 | . | 2.2 | i | 4.4 | -40* | -12* | -9.0*
Cc1ccc(S(=O)(=O)N2CCCCC2)cc1NC(=O)Cn1cnc2c1c(=O)n(C)c(=O)n2C | 0.64 | . | -2% | -2.2 | i | 32 | 4 | 9 | 1.7
CCN(CC)CCCn1c(=S)[nH]c2cc(OC)c(OC)cc2c1=O | 0.66 | 33 | 21% | . | . | 0.4 | . | . | .
C[C@@H]1CN([C@H](C)CO)C(=O)c2cccc(NC(=O)c3cnccn3)c2O[C@@H]1CN(C)S(=O)(=O)c1cccs1 | . | . | . | -1.4 | i | . | -3 | -3 | 1.7
O=C1CN(C(=O)COc2ccc(Br)cc2)c2ccccc2N1 | 0.64 | -4 | -12% | 0.3 | i | 4.7 | -14 | -9 | 2.8
COCc1nc2ccccc2n1CCCOc1ccccc1 | 0.74 | -18 | -4% | . | . | 1.3 | . | . | .
C[C@H]1CN([C@@H](C)CO)C(=O)CCCn2nncc2CO[C@H]1CN(C)S(=O)(=O)c1ccccc1F | . | . | -6% | -0.2&1.3&3.1 | i | -5.5 | 16&0 | 13&3 | 0.2&-0.6
Cc1cc(C(=O)N[C@H](c2ccccc2)[C@@]2(C)C[C@@H]2[C@@H](C)C(=O)Nc2ccc3ccccc3c2)no1 | . | 2 | -3% | . | i | -2.6 | -6 | -13 | -0.5
CCCn1nnnc1COc1ccc(C(N)=O)cc1 | 0.66 | -15 | -8% | -0.1 | i | -2.2 | 12 | 12 | -0.5
O=C(Nc1ccc(F)cc1F)c1ccccc1NC(=O)C1CC=CCC1C(=O)O (centres undefined) | 0.69 | -7 | . | -16 | i | 2.6 | 7 | 20 | 1.2
C=CCC(C#Cc1ccc(C)cc1)N(CC)CC (centres undefined) | 0.75 | -2 | 6% | . | . | 1.6 | . | . | .
COc1ccc(NC(=O)N(C)C[C@@H]2OCCCC[C@H](C)Oc3ccc(NC(=O)Nc4ccc(F)cc4)cc3C(=O)N([C@H](C)CO)C[C@@H]2C)cc1 | . | . | . | -3.2 | i | . | -3 | 1 | -2.8
C=C(C)COc1ccc(-c2nc(N)ncc2-c2ccc(OC)cc2)c(O)c1 | 0.69 | . | 3% | 28* | . | . | . | . | .
O=C(CSc1nnc(-c2ccccc2F)o1)NC1CC1 | 0.67 | -9 | . | 0.6 | i | -1.1 | 3 | 4 | -1.2
CN(C)c1ccc(N=Nc2ccc(S(=O)(=O)O)cc2)c2ccccc12 | 0.69 | 99* | -6% | . | . | -0.2 | . | . | .
CN(CC(=O)NCCc1ccc(F)cc1)CC(=O)Nc1ccc(F)c(F)c1F | 0.66 | . | 3% | -7.8 | i | 0.1 | 12 | 24 | 1.3
O=C(C(=O)N1CCN(S(=O)(=O)c2ccc(Cl)cc2)CC1)c1cccc(C(F)(F)F)c1 | . | . | . | -0.8 | i | . | 7 | 7 | -1.4
Cc1cc(C)c(CC(=O)c2ccccc2)c(C)c1 | 0.74 | . | 6% | 1.6 | i | -0.5 | 5 | 0 | -2.2
CCC(=O)Nc1cccc(NC(=S)NC(=O)c2ccccc2)c1 | 0.68 | . | -5% | 3.5 | i | 3.0 | 1 | 5 | 2.9
O=C(NCCCn1ccnc1)c1cc(S(=O)(=O)N2CCOCC2)c(Cl)cc1Cl | 0.71 | -4 | 2% | . | . | 0.8 | . | . | .
Cc1csc(NC(=O)c2cccnc2Cl)n1 | 0.64 | 1 | . | . | i | 0.8 | 14 | -14 | -2.9
Cc1nc(-c2ccc(S(=O)(=O)Nc3ccc(Br)cc3Cl)s2)cs1 | 0.63 | -8 | -10% | 2.7 | i | -0.6 | . | . | .
C[C@H](O)C#Cc1ccc([C@H]2[C@H]3CN(S(=O)(=O)c4ccccc4)CCCCN3[C@H]2CO)cc1 | . | . | . | -5.3 | i | . | -1 | -6 | 0.1
Cc1cc(C)c([N+](=O)[O-])cc1-c1ccc(/C=N/c2c(-c3ccco3)nc3ccccn23)o1 | . | 6 | 42µM* | . | . | 0.5 | . | . | .
COC(=O)[C@]12CCCCC=C1N(Cc1ccc3c(c1)OCO3)C(=O)[C@H](CC(=O)NCc1cccc(C(F)(F)F)c1)C2 | . | . | . | -0.5 | i | -9.4 | -6 | -4 | 2.0
Cc1cccc(NC(=O)COc2ccc(-c3nn(C)c(=O)c4ccccc34)cc2)c1 | 0.64 | -2 | . | 2.7 | i | 0.6 | -16 | -30 | 1.1
CN(C(=O)CSc1ncnc2sccc12)C1CCS(=O)(=O)C1 (centres undefined) | 0.64 | 2 | -15% | 0.2 | i | 5.0 | . | . | .
Cc1ccc(S(=O)(=O)c2nc(-c3ccco3)oc2SC(C)C)cc1 | 0.68 | 0 | . | -6.7 | . | 4.1 | -5 | -14 | 4.7
c1ccc(Nc2nc(-c3ccccc3)nc3ccccc23)cc1 | 0.68 | 27 | . | -8.6 | i | -3.4 | -57 | -76 | -14
O=C(Nc1ccc(Cl)c(Cl)c1)N[C@@H]1CC[C@H](CCn2cc(C3CC3)nn2)O[C@@H]1CO | . | . | . | 2.4 | i | . | -12 | -25 | 4.1
C=CC[C@H](CC(=O)NCCO)C(=O)NCCOC(=O)[C@@H](CC=C)Cc1ccc(F)cc1 | . | 1 | . | . | i | -3.6 | 5 | 1 | 1.2
Cn1ccnc1SCC(=O)N1CCN(S(=O)(=O)c2ccccc2)CC1 | 0.67 | 2 | 15% | 3.8 | i | 1.6 | 17 | 14 | 2.1
CC(C)NC(=O)Nc1ccc2c(c1)C(=O)N([C@H](C)CO)C[C@@H](C)[C@@H](CN(C)C(=O)Nc1ccc(C(F)(F)F)cc1)OCCCC[C@@H](C)O2 | . | . | . | -1.2 | i | . | 2 | 1 | -0.6

Screening results deposited in PubChem by several laboratories.

A portion of the library, so the mix of outcomes need not match the whole.
